Screens (PubChem)
HPGD block: HPGD (human) dehydrogenase inhibition; 150,000 compounds, 4.3% hits; purified HPGD, NADH fluorescence kinetic, PGE2 substrate; P15428; AID 894; Potency, µM, for the others: top-dose activity change, negative = inhibition, usual class: inhibitors; active = well fitted inhibition curve with a large enough effect (not every such curve was filed as active); inconclusive = small, poorly fitted or top-dose-only effect, or another doubt; inactive = no such curve, though single readings can be large or run the other way;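 also: top concentration of the series not given in the record; plate controls included wells without enzyme; inactives centre near -10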
Target sequence (P15428 whole entry, looked up): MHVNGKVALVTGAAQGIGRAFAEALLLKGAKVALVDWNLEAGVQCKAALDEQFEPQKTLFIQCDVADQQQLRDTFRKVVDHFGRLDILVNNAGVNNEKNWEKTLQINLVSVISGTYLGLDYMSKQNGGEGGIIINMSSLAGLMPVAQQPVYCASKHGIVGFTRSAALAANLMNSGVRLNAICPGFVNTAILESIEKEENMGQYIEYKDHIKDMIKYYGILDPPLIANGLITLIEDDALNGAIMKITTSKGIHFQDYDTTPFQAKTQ
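NADH formation kinetics: reaction with 30 uM PGE2 and 1 mM NAD+ (final), 20 nM enzyme, Tris-HCl pH 8 with Tween 20, after 15 min compound preincubation at room temperature. Fluorescence change, last versus first of five reads.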
Active calls of the source: *; ? = inconclusive. % is scaled to controls: 0 for no effect and ±100 for the full control effect; potency is read from the fitted curve at half-maximal effect. The list is partial (hit frequency here may not be typical).

SMILES	HPGD block
Cn1c(=O)c2c(nc(CN3CCC(Cc4ccccc4)CC3)n2CCN2CCOCC2)n(C)c1=O	-9%
COc1cccc(C2N(c3cccc(Cl)c3)C(=O)C3CCCN32)c1 (stereo not drawn)	5%
CC1CCC(NCc2ccco2)CC1 (stereo not drawn)	-10%
CC(=O)N1CCN(c2ccc(NCc3cccs3)cc2)CC1	-15%
O=C(O)CCCCCNS(=O)(=O)c1ccc(Cl)cc1	1%
Cc1noc(C)c1COc1cccc(C(=O)OCCOc2ccc(F)cc2)c1	-21%
NC(CCC(=O)N[C@@H](CS)C(=O)NCC(=O)O)C(=O)O (stereo partly drawn)	-2%
CC(C)c1ccc(OCC(=O)N(Cc2ccccc2)c2ccccn2)cc1	-18%
CCn1c(C)nc2c(=O)oc3ccccc3c21	?
CCN(CC)CCNC(=O)Cn1nc(-c2ccccc2)c2ccccc2c1=O	-4%
COc1cc2c(C(=O)NCCCN3CC(C)CC(C)C3)cn(CC(C)C)c(=O)c2cc1OC (stereo not drawn)	-13%
CCc1nnc(NC(=O)c2cnccn2)s1	-15%
O=C(CNS(=O)(=O)c1ccc(F)cc1)Nc1ccc(C(F)(F)F)cc1	-10%
[O-][n+]1onc2c1CCc1c-2nn(-c2ccccc2Cl)[n+]1[O-]	-9%
CCOc1nc(S(=O)(=O)c2ccc(C)cc2)c(Cl)s1	-9%
CCOC(=O)Nc1sc2c(c1C#N)CCC(C)C2 (stereo not drawn)	-9%
CC(=O)Nc1ccc(C(=O)NNC(=O)CCc2ccccc2)cc1	-10%
COc1cc(S(=O)(=O)NC2CCCCC2)ccc1Cl	-14%
CC(=O)N1CCCc2cc(S(=O)(=O)NC(C(=O)NCc3ccc(C)cc3)C(C)C)ccc21 (stereo not drawn)	0%
COC(=O)c1c(NC(=O)C2(C)Cc3ccccc3C(=O)O2)sc2c1CCCC2 (stereo not drawn)	?
CC1(C)CC(=O)C(C=NCCN2CCN(CC(=O)Nc3ccccc3)CC2)=C(O)C1	-8%
CCN1C=CC2=C(C#N)C(N)C(C#N)(C#N)C(c3ccccc3C(F)(F)F)C2C1 (stereo not drawn)	-24%
Cc1cccc(NC(=O)CCN2CCOCC2)c1	-1%
CC(=O)Nc1nc(CCC(C)C)cc2c1c(=O)oc1ccccc12	-18%
Cn1c(=O)c2c(ncn2CC(=O)OCC(=O)NC(c2ccccc2)c2ccccc2)n(C)c1=O	-12%
CCCOc1ccc(Br)cc1-c1cc(-c2ccc(Cl)cc2)[nH]c1-c1ccncc1	?
CCc1c(C)nc2ncnn2c1N1CCCC(C(=O)Nc2cc(F)ccc2C)C1 (stereo not drawn)	-13%
O=C(Nc1cccc2cccnc12)c1ccc(Br)o1	-16%
CC1CC(Nc2ccccc2)=CC(=O)O1 (stereo not drawn)	-23%
c1ccc(-c2nc3c(ccc4ccccc43)[nH]2)nc1	?

Six entries picked at random from those above:
SMILES	HPGD block
CC(C)c1ccc(OCC(=O)N(Cc2ccccc2)c2ccccn2)cc1	-18%
O=C(Nc1cccc2cccnc12)c1ccc(Br)o1	-16%
Cc1noc(C)c1COc1cccc(C(=O)OCCOc2ccc(F)cc2)c1	-21%
CCn1c(C)nc2c(=O)oc3ccccc3c21	?
CCOC(=O)Nc1sc2c(c1C#N)CCC(C)C2 (stereo not drawn)	-9%
CCN1C=CC2=C(C#N)C(N)C(C#N)(C#N)C(c3ccccc3C(F)(F)F)C2C1 (stereo not drawn)	-24%

Next section
SMILES	HPGD block
N#Cc1c(N)n[nH]c1-c1cc2c([nH]1)CCCC2	-20%
Cc1ccc(S(=O)(=O)N2c3ccccc3OCC2c2ccccc2)cc1 (stereo not drawn)	-10%
O=S(=O)(N/N=C/c1cccc(OC2CSC2)c1)c1ccccc1	-7%
Cc1ccc(NC(=O)N/C=C/c2ccco2)cc1C	-5%
CCCCNCc1ccc(SC)cc1	0%
CCN(CC)CCCNC(=O)c1cc(-c2ccc(Cl)c(Cl)c2)on1	-16%
CCN(CCCNC(=O)CNC(=O)Cn1cnc2ccccc2c1=O)c1cccc(C)c1	-5%
O=C(CSc1ncc(-c2ccc(F)cc2)n1Cc1ccco1)Nc1nccs1	-4%
Cc1cc(Cl)cc(C)c1OCCCCN1CCOCC1	-4%
CN(C(=O)CSc1nnc(NC2CCCCC2)s1)C1CCS(=O)(=O)C1 (stereo not drawn)	-13%
Cc1cc(C)cc(N(C(C)C(=O)NC2CCCC2)S(C)(=O)=O)c1 (stereo not drawn)	-15%
CC1(C)CC2CC(C)(CN2C(=O)COC(=O)c2ccc(Cl)c(N)c2)C1 (stereo not drawn)	-19%
CCC(=O)c1c[nH]c(C(=O)NCCCn2ccnc2)c1	-12%
CCN(CC)c1ccc(NC(=O)CN2CCN(c3ccc(F)cc3)CC2)cc1	-11%
CC(C)OC(=O)CSc1ncnc2c1cnn2-c1ccccc1	?
Fc1ccc(C2=CC(c3ccco3)n3ncnc3N2)cc1 (stereo not drawn)	?
COc1ccc(C(CC(=O)c2ccc(C)cc2)C(C#N)C#N)cc1OC (stereo not drawn)	-14%
COC(=O)c1c(C)nn(-c2ccccc2)c1-n1cccc1	-8%
O=[N+]([O-])c1ccc(/C=N/Nc2nc(N3CCCCC3)nc(N3CCCCC3)n2)o1	-22%
O=C(C1CCCN(S(=O)(=O)c2cccc3nsnc23)C1)N1CC=C(c2ccccc2)CC1 (stereo not drawn)	?
O=c1c2ccccc2nc(/C=C/c2c[nH]c3ccccc23)n1-c1ccc([N+](=O)[O-])cc1	-27%
Cc1ccccc1NC(=S)N(CCN(C)C)C(C)c1ccccn1 (stereo not drawn)	-1%
Cc1cccc(N2C(=O)CC(N3CCN(Cc4ccc(Cl)cc4)CC3)C2=O)c1 (stereo not drawn)	-5%
O=P(c1ccc2c(c1)OCCO2)(N1CCOCC1)N1CCOCC1	-11%
COc1ccc(CC(=S)N2CCOCC2)cc1OC	-8%
COc1ccc(-c2cc3nc(-c4ccccc4)cc(N4CCC5(CC4)OCCO5)n3n2)cc1	?
CCCCCOC(=O)C1=C(C)NC(=O)NC1c1ccccc1OCC (stereo not drawn)	-9%
Cc1cccc(C(=O)Nc2sc3c(c2C#N)CCCCC3)c1	?
CCOC(=O)C1CCN(C(=O)CSc2ccccc2)CC1	-4%
CC(C)NC(=O)NC(=O)COC(=O)Cc1ccsc1	-6%

3 compounds out of the list above, sorted by the number in HPGD block, descending:
SMILES	HPGD block
CCOC(=O)C1CCN(C(=O)CSc2ccccc2)CC1	-4%
O=P(c1ccc2c(c1)OCCO2)(N1CCOCC1)N1CCOCC1	-11%
O=c1c2ccccc2nc(/C=C/c2c[nH]c3ccccc23)n1-c1ccc([N+](=O)[O-])cc1	-27%

More entries
SMILES	HPGD block
COc1ccccc1-n1c(SCC(=O)NC(C)(C)C)nc(O)cc1=O	-12%
O=C(CN(Cc1ccco1)C(=O)CNS(=O)(=O)c1ccccc1)NCc1ccccc1	-19%
COc1nc(N(c2ccccc2)c2ccccc2)nc(-n2ccnc2)n1	-13%
C=CCn1c(SCC2=C(C(=O)OCC)C(C)NC(=O)N2)nnc1C1CCCCC1 (stereo not drawn)	-7%
CCOC(=O)N1CCN(S(=O)(=O)c2cc(Br)cc3c2N(C(C)=O)C(C)C3)CC1 (stereo not drawn)	-24%
COc1ccccc1N1CCN(S(=O)(=O)c2cc(C)sc2C)CC1	-3%
CCOC(=O)c1nnc2cc(-c3ccccc3)nn2c1C	-15%
O=C(NCc1cccnc1)c1cccc2c1C(=O)N(C1CCCCC1)C2	-14%
Cc1cc2cc(CN(CCCO)S(=O)(=O)c3cccc4nsnc34)c(=O)[nH]c2cc1C	-12%
Cc1cc(N2C(=O)C3CC=CCC3C2=O)no1 (stereo not drawn)	-14%
CC1=C(C)C(=O)C(CCCCC#CCCCC#CCO)=C(C)C1=O	?
COC/C=C/C1=CC2=CC(=O)C(C)(OC(=O)c3cnc4ccccc4n3)C(=O)C2=CN1C1CCCCC1 (stereo not drawn)	4%
O=C1COc2ccc(C(=O)COC(=O)c3sc4ccccc4c3Cl)cc2N1	-13%
CN(CC(=O)NCc1ccccn1)S(=O)(=O)c1ccc(Cl)cc1	-1%
O=S(=O)(NC1CCN(Cc2ccccc2)CC1)c1cccc(S(=O)(=O)N2CCOCC2)c1	-9%
CCOC(=O)c1ccc(NC(=O)CCS(=O)(=O)c2ccc(Br)s2)cc1	2%
Cc1cc(C)c[n+](-c2nc3ccccc3nc2[N-]S(=O)(=O)c2ccc(Cl)cc2)c1	-8%
Cc1cc(C)n2ncc(C(=O)NCc3ccc(Cl)cc3)c2n1	?
Cc1cc(C)c(NC(=O)CN2CCN(C)CC2)c(C)c1	-12%
CN(CC[C@@H](Oc1ccc(-c2ccccc2)cc1)c1ccc(F)cc1)CC(=O)O	7%
COc1cc(/C=N/NC(=O)c2ccccc2)ccc1OS(=O)(=O)c1ccccc1	-21%
COc1ccc2nc(Nc3nc(CSc4nnc(C)s4)cc(=O)[nH]3)nc(C)c2c1	-16%
COc1ccc2c(c1)CC/C(=C\C=C\c1ccccc1)C2=O	-21%
CCc1ccc(C(=O)c2oc3nc(C)cc(C)c3c2N)cc1	-29%
Cc1ccc(NC(=O)CN2C(=O)NC3(CCC(C)CC3)C2=O)c(Cl)c1 (stereo not drawn)	-10%
COc1ccc(CCN2C(=O)NC(NS(=O)(=O)c3ccc(N)cc3)(C(F)(F)F)C2=O)cc1OC (stereo not drawn)	-1%
Cc1ccc(NC(=O)c2ccc(F)c(S(=O)(=O)N3CCOCC3)c2)cc1F	-9%
CCCCOc1ccc(C(=O)N2CC(C)OC(C)C2)cc1 (stereo not drawn)	?
Cc1cccc(C)c1NC(=O)CSc1nnc(-c2ccoc2C)n1C	-17%
COc1cc(C=Nc2cccc([N+](=O)[O-])c2C)ccc1OC(C)=O	-10%

A portion of the results above, as a working copy:
SMILES	HPGD block
Cc1cc(C)c[n+](-c2nc3ccccc3nc2[N-]S(=O)(=O)c2ccc(Cl)cc2)c1	-8%
Cc1cc(C)n2ncc(C(=O)NCc3ccc(Cl)cc3)c2n1	?

(next part)
SMILES	HPGD block
CC(C)(C)SCCNC(=O)/C=C/c1ccc([N+](=O)[O-])cc1	-11%
Cc1cc(F)ccc1NCc1cccnc1	-2%
COc1cc(/C=N/NC(=O)c2cnccn2)cc(OC)c1OC	-23%
COc1ccc(C2C=C(C34CC5CC(CC(C5)C3)C4)NC(=S)N2)cc1OC (stereo not drawn)	-8%
O=C1c2cccc(OCC(=O)N3CCCc4ccccc43)c2CCN1Cc1ccccc1	-17%
O=c1c2cc3ccccc3n2cnn1Cc1ccccc1F	?
COc1ccc(NC(=O)N2CCCC3(CCN(C(=O)c4cccc(F)c4)CC3)C2)cc1	-9%
COC(=O)c1cccc(S(=O)(=O)N2CCN(c3nc4ccccc4s3)CC2)c1	-12%
O=C(NCc1ccco1)c1cc(-c2cccc(Cl)c2)on1	-12%
O=C(Nc1nnc(CCN2CCCCC2)s1)C1CCCCC1	-3%
CC(C)C(=O)Nc1nnc(CCN2CCOCC2)s1	-4%
O=C(OCc1cccc2ccccc12)C1CC(=O)N(c2ccccc2)C1 (stereo not drawn)	-29%
O=C(CSc1ncnc2c1oc1ccccc12)OCc1ccccc1	?
COC(=O)C(NC(=O)c1ccc(C)cc1)(Nc1cccc(C)n1)C(F)(F)F (stereo not drawn)	-13%
CCOC(=O)CSc1ncnc2c(C(=O)OCC)c3n(c12)CCC3	-6%

Part of the list above in a different format:
| compound | HPGD block |
| --- | --- |
| CC(C)(C)SCCNC(=O)/C=C/c1ccc([N+](=O)[O-])cc1 | -11% |
| COc1ccc(C2C=C(C34CC5CC(CC(C5)C3)C4)NC(=S)N2)cc1OC (stereo not drawn) | -8% |

Next part
SMILES	HPGD block
COc1cccc(C2NC(c3cccc(OC)c3O)C(C)C(=O)C2C)c1O (stereo not drawn)	-14%
O=C(CCNc1ccc(F)c(Cl)c1)c1ccco1	-7%
Cc1cccnc1NC(=O)Nc1cccs1	-4%
COC(=O)c1ccc(COn2c(=O)c(C)[n+]([O-])c3ccccc32)cc1	-13%
Cc1cc(OCCN2CCCC2)ccc1[N+](=O)[O-]	-7%
COc1cccc(NC(=S)NC(=O)c2c(Cl)c(C)nn2C)c1	-19%
Cc1cccc(-c2c3c(=O)n(C)c(=O)n(C)c3cn2C(C)C)c1	-6%
O=C(c1ccc(-c2ccccc2)cc1)c1ccccc1C(=O)N1CCOCC1	-8%
COCCNC(=O)c1sc2nc(-c3ccccc3)cn2c1C	?
CC(C)(C)C1=C(C#N)C(c2cc3c(cc2Br)OCO3)C(C#N)=C(N)O1 (stereo not drawn)	-8%
CCOC(=O)N(C)c1ccc(C(O)(C(F)(F)F)C(F)(F)F)cc1	1%
COc1ccc(N2CCN(CC(O)COCCOc3ccc(Br)cc3)CC2)cc1 (stereo not drawn)	-6%
COc1cccc(C(=O)Nn2c(-c3cccs3)nc3ccccc3c2=O)c1OC	-25%
COc1ccc(CN(Cc2ccco2)S(=O)(=O)c2ccc(S(=O)(=O)N3CCCC3)cc2)cc1	-7%
Cc1ccc2c(c1)c1c3n2CCN(C(=O)C2CC2)C3CCC1 (stereo not drawn)	-17%
CCN(CC)CCCN1C(=O)C(=O)/C(=C(/O)c2ccc3c(c2)CC(C)O3)C1c1cccnc1 (stereo not drawn)	-4%
CC(NC(=O)CNC(=O)OCc1ccccc1)C(=O)N1CC(O)CC1C(=O)OCc1ccccc1 (stereo not drawn)	-14%
COc1cc(Nc2cc(C)nc3ncnn23)cc(OC)c1	-19%
CCCCCCCOC(=O)c1nc(Cl)c(Cl)c(N)c1Cl	-21%
